T cell HTS: T cell immune modulators affecting CD8 T cell-vesicle binding; 2C CD8+ T cell-vesicle binding, flow cytometry; stronger effect = lower value; actives 0.068% (n = 330,000); AID 2052; calls only at 7 µM;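 active means response, share of CD8 T cells binding vesicles, and their 90th percentile fluorescence all below set limits, cut at about 80% in these data, passing the limit was not always enough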
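Benchmarks: naked versus QL9-loaded vesicles / Assay system: purified 2C TCR transgenic mouse naive CD8+ T cells / Technique: high-throughput flow cytometry with anti-B7-1 and anti-CD8 staining / Timing: Cell–vesicle co-incubation 1.5 h at 37 °C, staining 20 min on ice / Read-out: percent CD8+ FL2 mean versus row control / Probe or stimulus: QL9-loaded Drosophila micro-vesicles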
MgcRacGAP inhibition: MgcRacGAP GTPase-activating activity inhibitors, confirmation, biochemical, ADP Hunter fluorescence; MgcRacGAP-stimulated Rac1 GTP hydrolysis, ADP Hunter fluorescence; higher % means a stronger effect; GST-tagged Rac1 F28L mutant substrate; inhibition, % at 30 µM; hits with a dose series show IC50 in µM; actives 0.6% (n = 340,000);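 active means first-screen hits whose inhibition reached a set limit at any dose in the follow-up dose series; inconclusive means inhibition above the set first-screen limit but never retested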;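 further: fluorescence reports GDP produced by GAP-driven GTP hydrolysis; strong numbers were not always called active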
Large T inhibition: TAg ATPase/helicase activity blockers – biochemical (AID 1903); SV40 large T antigen ATPase/helicase inhibition assay; higher % means a stronger effect; one-dose inhibition, % at 20 µM; IC50 in µM for titrated hits; actives 0.39% (n = 310,000); in the data active means a potency from the dose series; inconclusive means inhibition mostly from about 32% at the one dose, without a potency; inactive means the rest, 99 in 100 with inhibition below about 32%; further: strong numbers were not always called active
Myeloid diff 2: myeloid differentiation induction | actives 1% (n = 360,000) | AID 624256 | calls only at 10 µM | ER-HoxA9 myeloid progenitors, lysozyme-GFP differentiation, flow cytometry;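 active means normalized GFP-positive differentiation at or above the plate's own cutoff, the solvent-only control mean plus 3 SD; inconclusive means no clear call, values can overlap the other calls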;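 further: cells exposed to compound for four days before flow analysis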
UTI89 phage lysis: inhibition of K1F phage lysis, E. coli UTI89, bacterial capsule biogenesis inhibitors, alamar blue (AID 488966) | E. coli UTI89 K1F phage lysis, alamar blue, 2 h; higher % means a stronger effect | inhibition, % at 100 µM; hits with a dose series show IC50 in µM | actives 0.02% (n = 340,000);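 active means phage lysis inhibition, versus mean bacterial control, above a set limit; inconclusive means no clear call, values can overlap the other calls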;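 further: capsule biogenesis inhibitors block K1F phage lysis so surviving cells raise fluorescence; higher fluorescence means more inhibition of phage lysis; actives were called in the ten point dose series up to 300 µM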
RSV CPE inhibition: inhibition of RSV-induced cytopathic effect – HEp-2 cells, primary 10 µM value included (AID 2391). HEp-2 cells, RSV-induced CPE inhibition; higher % means a stronger effect. CPE inhibition, % at 10 µM; hits with a dose series show IC50 in µM. actives 0.13% (n = 310,000); in the data active means a potency from the dose series; inconclusive means CPE inhibition mostly from about 23% at the one dose, without a potency; inactive means the rest, 99 in 100 with CPE inhibition below about 21%; further: strong numbers were not always called active
T cell HTS vesicle-bound %: second read-out of T cell HTS, no call of its own (marks repeat the call); double positive events, %; measured here: CD8+ vesicle-bound cell fraction;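 binding gate set so that unloaded-vesicle control wells show 10% double positive cells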
Myeloid diff 2 GFP+ MAC1+ %: further read-out of Myeloid diff 2, marked with its call; GFP+ MAC1+ double positive, %; measured here: differentiation confirmed by MAC1 staining
An asterisk follows results filed as active; i = inactive; ? = inconclusive; nt = not tested or not shown; + = active, no number; & = joins results of further samples; [ ] = dose if it differs, or a comment. The list is partial; the hit share may differ from the screen's.

SMILES	T cell HTS	T cell HTS vesicle-bound %	MgcRacGAP inhibition	Large T inhibition	Myeloid diff 2	Myeloid diff 2 GFP+ MAC1+ %	UTI89 phage lysis	RSV CPE inhibition
COc1ccc(Nc2ccc(OC)cc2)cc1	i	57	nt	26µM*	i	0.5	nt	nt
COc1ccc(OCCCC(=O)Nc2ncn[nH]2)cc1	i	34	4%	22%	i	0.1	0.1%	0.6%
OC(CNCCc1ccccc1)COc1ccc(OCC(O)CNCCc2ccccc2)cc1 (centres undefined)	i	19	8%	-1%	i	0.2	3.5%	?
CCC(=O)OCC(=O)[C@@]1(OC(=O)CC)[C@@H](C)C[C@H]2[C@@H]3CCC4=CC(=O)C=C[C@]4(C)[C@@]3(Cl)[C@@H](O)C[C@@]21C	i	22	-7%	8%	i	18	5.3%	-2.2%
O=C(N/N=C/c1ccc(O)cc1O)/C(=C/c1ccccc1)CCO	i	35	?	19µM*	i	0.1	3.4%[50 µM]	13%
O=c1[nH]sc2ccccc12	nt	nt	?	32µM*	?	nt	0.1%	nt
O=C(Nc1cc(N2CCOCC2)ncn1)NC1(C(F)(F)F)Oc2ccc(Cl)cc2O1 (centres undefined)	i	44	nt	38%	nt	nt	nt	3.6%
CO[C@@]12[C@@H]3N[C@@H]3CN1C1=C(C(=O)C(N)=C(C)C1=O)[C@@H]2COC(N)=O	nt	nt	-2%	nt	nt	nt	-4.5%	nt
O=C(CC(c1ccccc1)c1ccccc1)Nc1ncn[nH]1	i	38	6%	2%	i	0.7	0.1%	1.5%
O=C(Oc1c(Br)cc([N+](=O)[O-])cc1Br)c1cccnc1	i	49	-3%	4%	i	0.4	0.1%	0.4%

The list goes on; the last 5 above are carried over.
SMILES	T cell HTS	T cell HTS vesicle-bound %	MgcRacGAP inhibition	Large T inhibition	Myeloid diff 2	Myeloid diff 2 GFP+ MAC1+ %	UTI89 phage lysis	RSV CPE inhibition
O=c1[nH]sc2ccccc12	nt	nt	?	32µM*	?	nt	0.1%	nt
O=C(Nc1cc(N2CCOCC2)ncn1)NC1(C(F)(F)F)Oc2ccc(Cl)cc2O1 (centres undefined)	i	44	nt	38%	nt	nt	nt	3.6%
CO[C@@]12[C@@H]3N[C@@H]3CN1C1=C(C(=O)C(N)=C(C)C1=O)[C@@H]2COC(N)=O	nt	nt	-2%	nt	nt	nt	-4.5%	nt
O=C(CC(c1ccccc1)c1ccccc1)Nc1ncn[nH]1	i	38	6%	2%	i	0.7	0.1%	1.5%
O=C(Oc1c(Br)cc([N+](=O)[O-])cc1Br)c1cccnc1	i	49	-3%	4%	i	0.4	0.1%	0.4%
N=C(N)c1ccc(OCCCCCOc2ccc(C(=N)N)cc2)cc1	i	25	19%	13%&6%	i	2.8	i	3.7%
CCN(CC(=O)Nc1cccc(F)c1)Cc1nc2ccccc2c(=O)[nH]1	i	21	-2%	10%	i	0.0	0.4%	0.2%
CC(=O)O[C@H]1C(=O)[C@@]2(C)[C@H]([C@H](OC(=O)c3ccccc3)[C@]3(O)C[C@H](OC(=O)[C@H](O)C(NC(=O)c4ccccc4)c4ccccc4)C(C)=C1C3(C)C)[C@]1(OC(C)=O)CO[C@@H]1C[C@@H]2O (some centres undefined)	i	11	5%	13%	i	16	4.3%	-1.4%
NCCS(=O)(=O)O	i	25	3%	8%	i	1.7	3.5%	0.5%
Nc1ccc2ncccc2c1	i	56	2%	14%	i	0.6	-0.5%	1.8%
c1ccc2c(c1)[nH]c1ccccc12	i	62	10%	2%	i	0.9	-0.4%	1.6%
CCCCNC(=O)NS(=O)(=O)c1ccc(C)cc1	i	19	7%	1%&10%	i	2.2	-1.1%	0.7%
COc1c(N2C[C@@H]3CCCN[C@@H]3C2)c(F)cc2c(=O)c(C(=O)O)cn(C3CC3)c12	i	65	9%	25%	i	2.0	-13%	0.3%
Cc1cn([C@H]2C[C@H](N=[N+]=[N-])[C@@H](CO)O2)c(=O)[nH]c1=O	i	23	5%	15%	+	27*	-5.7%	-0.7%
CN/C(=C/[N+](=O)[O-])NCCSCc1ccc(CN(C)C)o1	i	20	5%	17%	i	1.9	0.7%	-2.4%

Gathered by group, the compounds so far with a Cl atom
SMILES	T cell HTS	T cell HTS vesicle-bound %	MgcRacGAP inhibition	Large T inhibition	Myeloid diff 2	Myeloid diff 2 GFP+ MAC1+ %	UTI89 phage lysis	RSV CPE inhibition
CCC(=O)OCC(=O)[C@@]1(OC(=O)CC)[C@@H](C)C[C@H]2[C@@H]3CCC4=CC(=O)C=C[C@]4(C)[C@@]3(Cl)[C@@H](O)C[C@@]21C	i	22	-7%	8%	i	18	5.3%	-2.2%
O=C(Nc1cc(N2CCOCC2)ncn1)NC1(C(F)(F)F)Oc2ccc(Cl)cc2O1 (centres undefined)	i	44	nt	38%	nt	nt	nt	3.6%

Ordered by formula weight (ascending): part of the list above
SMILES	T cell HTS	T cell HTS vesicle-bound %	MgcRacGAP inhibition	Large T inhibition	Myeloid diff 2	Myeloid diff 2 GFP+ MAC1+ %	UTI89 phage lysis	RSV CPE inhibition
c1ccc2c(c1)[nH]c1ccccc12	i	62	10%	2%	i	0.9	-0.4%	1.6%
COc1ccc(Nc2ccc(OC)cc2)cc1	i	57	nt	26µM*	i	0.5	nt	nt
COc1ccc(OCCCC(=O)Nc2ncn[nH]2)cc1	i	34	4%	22%	i	0.1	0.1%	0.6%

More records follow:
SMILES	T cell HTS	T cell HTS vesicle-bound %	MgcRacGAP inhibition	Large T inhibition	Myeloid diff 2	Myeloid diff 2 GFP+ MAC1+ %	UTI89 phage lysis	RSV CPE inhibition
CN1CCCC1c1cccnc1 (centres undefined)	i	35	-2%	9%	i	1.9	0.5%	1.6%
O=C(Cc1c[nH]c2ccccc12)N/N=C/c1ccccc1O	i	18	10%	-2%	i	0.1	1.1%[50 µM]	-1.9%
O=C(CC1CCCCC1)Nc1ncn[nH]1	i	25	13%	-3%	i	0.7	1.7%	2.0%
Cn1cc2cccc([N+](=O)[O-])c2n1	i	21	0%	18%	i	0.1	0.5%	1.9%
CC1(C)CC(=O)C(C(=O)/C=C/NCCc2ccccc2)C(=O)C1	i	39	8%	6%	i	0.4	0.6%	2.2%

High-throughput results deposited in PubChem BioAssay by several laboratories.
